Screening results (PubChem BioAssay)
ALR H2O2 inh: inhibitors of human ALR sulfhydryl oxidase, primary screen, biochemical, H2O2 detection, HRP-luminol luminescence, single point; purified ALR, DTT oxidation; inhibition, % (test concentration not listed); 290,000 tested, 3.8% active;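 active = mean and each replicate at 75% or more; inconclusive = only one of the two met; inactive = neither met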;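 also: stock transfer was 7.5 nL into about 7.5 µL; 0% = neutral wells and 100% = wells with inactivated enzyme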
Target sequence (P55789 whole entry, looked up): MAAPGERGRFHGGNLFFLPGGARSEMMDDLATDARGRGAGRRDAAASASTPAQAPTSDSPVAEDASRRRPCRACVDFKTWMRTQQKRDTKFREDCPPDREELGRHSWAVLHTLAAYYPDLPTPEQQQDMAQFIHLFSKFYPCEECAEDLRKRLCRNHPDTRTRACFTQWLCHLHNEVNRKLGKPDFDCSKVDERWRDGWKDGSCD
LANA-H2B inh: blockers of LANA interaction with H2A/H2B – biochemical, FP readout, HTS, primary screen. Protein LANA1 (Human herpesvirus 8 type P (isolate GK18)), Q9QR71. 320,000 tested, 0.6% active. cell-free LANA-H2A/H2B peptide, fluorescence polarization. inhibition, % (concentration not given with the values). AID 2629, 2010; in the data active = inhibition mostly above about 10%, no sharp cut-off; inactive = mostly below about 6.7%;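 also: stock transfer was 7.5 nL into about 10 µL; 0% = median of vehicle wells and 100% = median of positive control wells; one replicate is shown; the record names a cut of 25% in any replicate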
Vif TR-FRET: inhibitors of Vif binding to APOBEC3G peptide, primary screen, biochemical, TR-FRET, GST-Vif 1-94, biotin-A3G peptide, dose response retest (AID 1117319); Virion infectivity factor (Human immunodeficiency virus type 1 group M subtype B (isolate …; TR-FRET GST-Vif / biotin-A3G peptide binding; higher % means a stronger effect; test concentration not given here; strong numbers were not always called active; inhibition, %; hits with a dose series show IC50 in µM; 260,000 tested, 0.57% active;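 active = above the screen mean plus three standard deviations and confirmed in dose response; inconclusive = results disagree or hit not tested in dose response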;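 also: Vif residues 1-94 fused to GST binding biotinylated APOBEC3G peptide 110-148; 0% = full assay without inhibitor and 100% = GST in place of GST-Vif; retest series ran down from 100 µM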
Beta2AR agonist: beta2AR agonists driving receptor internalization, primary screen, cell-based, FAP fluorogen, flow cytometry. 340,000 tested, 0.43% active. Am2.2-beta2AR cells; reference of the scale not given here. response, % (concentration not given with the values). Beta-2 adrenergic receptor (Homo sapiens), P07550;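 active = response above a set limit, near 3 SD of response in nonfluorescent compounds, cut at about 42% in these data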;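 also: stock transfer was 100 nL into about 11 µL; a reference agonist was the positive control; negative values mostly stem from fluorescent compounds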
Target sequence (P07550 whole entry, looked up): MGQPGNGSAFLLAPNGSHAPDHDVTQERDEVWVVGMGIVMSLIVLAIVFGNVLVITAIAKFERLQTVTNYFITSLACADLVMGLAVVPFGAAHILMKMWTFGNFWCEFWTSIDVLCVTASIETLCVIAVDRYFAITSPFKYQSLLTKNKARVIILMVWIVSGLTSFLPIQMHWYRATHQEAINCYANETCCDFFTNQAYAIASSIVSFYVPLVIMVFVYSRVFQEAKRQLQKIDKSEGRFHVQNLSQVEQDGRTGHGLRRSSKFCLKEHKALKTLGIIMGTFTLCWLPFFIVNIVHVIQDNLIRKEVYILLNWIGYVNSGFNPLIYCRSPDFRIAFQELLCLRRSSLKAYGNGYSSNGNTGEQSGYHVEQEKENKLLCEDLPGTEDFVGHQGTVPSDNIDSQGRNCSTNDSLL
HNF4A DNA FP: change in binding of human HNF4A to DNA, primary screen, biochemical, fluorescence polarization, FITC-DNA | 360,000 tested, 0.3% active | 1 h | Hepatocyte nuclear factor 4-alpha (Homo sapiens), P41235 | activity change, % at 10 µM; in the data active = activity change above about 30%, passing the limit was not always enough;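 also: controls were the assay level and a saturating level of protein; the project sought stronger binding though the title names inhibitors; some compounds called inactive have numbers as strong as hits; positive values seem to mean higher polarization but the record does not say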
Target sequence (P41235 whole entry, looked up): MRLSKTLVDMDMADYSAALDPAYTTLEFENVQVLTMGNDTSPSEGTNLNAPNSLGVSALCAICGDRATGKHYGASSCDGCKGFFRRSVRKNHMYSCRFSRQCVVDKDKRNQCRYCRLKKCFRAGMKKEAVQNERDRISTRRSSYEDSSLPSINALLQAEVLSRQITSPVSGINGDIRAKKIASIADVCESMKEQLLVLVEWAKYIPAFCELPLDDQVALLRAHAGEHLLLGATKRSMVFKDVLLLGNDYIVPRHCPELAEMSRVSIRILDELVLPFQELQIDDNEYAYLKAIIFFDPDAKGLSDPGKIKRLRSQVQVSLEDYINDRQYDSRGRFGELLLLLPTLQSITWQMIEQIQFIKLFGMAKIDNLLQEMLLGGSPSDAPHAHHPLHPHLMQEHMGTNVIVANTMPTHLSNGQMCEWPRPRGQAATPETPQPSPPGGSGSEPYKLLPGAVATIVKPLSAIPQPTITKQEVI
Calb FLC: C. albicans growth inhibition with fluconazole, primary screen, CaCi-2 strain, Alamar Blue fluorescence; 300,000 tested, 0.57% active; growth inhibition, % (no concentration beside the values); C. albicans CaCi-2 (fluconazole-resistant clinical isolate) + fluconazole, 48 h;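 active = most replicates above 75%; inconclusive = exactly half above 75%; inactive = most below 75%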;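 also: all wells also contain fluconazole at 8 µg/ml as a sub-toxic cotreatment; 0% = median of DMSO wells and 100% = median of geldanamycin control wells; wells of about 8 µL received 7.5 nL stock; the first replicate is given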
RanGTP-Impb inh: inhibitors of RanGTP-importin-beta interaction, primary screen, biochemical, FRET, CFP-Ran, YFP-importin-beta, homogeneous; Ran GTPase (GTP-bound) - importin-beta complex; cell-free CFP-Ran/YFP-importin-beta FRET ratio; inhibition, % (concentration not given with the values); 300,000 tested, 1.1% active; AID 2216, 2009;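 active = most replicates above 15%; inconclusive = exactly half above 15%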;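 also: 0% = DMSO wells and 100% = Ran loaded with GDP instead of GTP; wells of about 40 µL received 100 nL stock; the first replicate is given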
Numbers without * were called inactive; ? = inconclusive; . = not tested or not shown.

SMILES	ALR H2O2 inh	LANA-H2B inh	Vif TR-FRET	Beta2AR agonist	HNF4A DNA FP	Calb FLC	RanGTP-Impb inh
Cc1cccc([C@@H]2[C@@H]3C(=O)N(Cc4ccccc4)C(=O)[C@@H]3[C@]3(C)C(=O)N(c4ccc(C(F)(F)F)cc4)C(=O)N23)c1	1	-0.1	.	-3	2.8	28	6.0
CCC1CCCCN1C(=S)NCc1ccccc1 (configuration not stated)	-1	2.0	9%	-6	-2.4	-2	1.9
COc1ccc(-c2cc(C(F)(F)F)nc(SCC(=O)NCc3cnn(C)c3C)n2)cc1OC	1	0.0	-4%	-13	-0.5	-6	-1.1
CCc1cccc(CC)c1NC(=S)NCc1ccc2c(c1)OCO2	1	1.8	-2%	8	-2.6	-8	-1.2
CCOCN(C(=O)Cn1c(C(C)O)nc2ccccc21)c1c(C)cccc1CC (configuration not stated)	-2	2.5	29%	-6	0.7	12	?
CC(C)NS(=O)(=O)c1ccc(NC(=S)NC(=O)c2ccc(-c3ccccc3)cc2)cc1	-24	0.6	1%	1	-2.6	26	4.8
Cc1ccc(NC(=O)CNC(=O)Cn2cnc3sc(C)c(C)c3c2=O)cc1F	-3	2.0	-5%	-3	-3.7	3	-0.3
COc1ccccc1NC(=O)CSc1nc(SC)ns1	85*	3.8	.	8	0.7	-3	2.1
COc1ccc(CNC(=O)C(C)n2nc(C)c3c(C)n(-c4ccccc4)nc3c2=O)c(OC)c1 (configuration not stated)	-4	1.4	.	-5	2.4	-1	0.4
COc1ccc(NC(=O)CCc2c(C)nn(-c3ccc(N4CCOCC4)nn3)c2C)cc1	-6	-4.2	.	2	3.4	2	6.3
Cc1cc(Cl)c(S(=O)(=O)NC(C(=O)O)C(C)C)cc1OCC(=O)NC1CCCCC1 (configuration not stated)	1	8.6	6%	2	-0.9	-8	1.1
Cc1ccc(N(CC(=O)Nc2ccc(-c3nc4ccc(C)cc4s3)cc2)S(C)(=O)=O)cc1	-10	7.7	-1%	10	3.0	5	-1.5
Cc1nn(C)cc1C(=O)NNC(=S)Nc1ccc(Cl)cc1	50	9.4	-2%	-4	0.9	1	2.8
CCOc1ccccc1OCC(=O)Nc1ccc(S(=O)(=O)N(C)C)cc1	-2	4.8	-10%	9	2.9	-6	3.0
Cc1cccc(NC(=O)Cn2cnc3c(oc4ccccc43)c2=O)c1	-5	1.2	4%	-1	-0.6	-18	1.6
COC(=O)[C@@]1(Cc2ccc(F)cc2)[C@H]2c3cc(C(=O)N(C)C)n(Cc4ccc(OC)c(OC)c4)c3C[C@H]2CN1C(=O)c1ccccc1	-17	-1.2	17%	.	.	21	2.2
COc1cc(C2Nc3ccccc3C(=O)N2c2ccccc2OC)ccc1O (configuration not stated)	29	-3.8	-4%	-5	2.1	-5	-2.5
O=C(CN1C(=O)NC2(CCOc3ccccc32)C1=O)Nc1ccc2c(c1)OCCO2 (configuration not stated)	-16	-0.9	3%	5	0.8	-32	5.0
Cc1ccc(Cn2ccc(NC(=O)c3cc(C)on3)n2)cc1	19	4.5	9%	2	-4.0	38	-2.4
COc1ccc(-c2sc(Nc3ccc(F)c(F)c3F)nc2CCC(=O)NN)cc1	-28	11	4%	-3	1.0	-1	3.3
COc1ccc(S(=O)(=O)N2CCN(CCC(=O)Nc3ccccc3F)CC2)cc1	4	-6.8	0%	7	0.6	-19	-1.8
CC(C)(C)c1nc(SCC(=O)NCc2cccs2)c2ccccc2n1	-4	-2.7	-1%	5	-5.0	-13	3.2
Cc1nc2sc(C(c3cccs3)N3CCC(C(N)=O)CC3)c(O)n2n1 (configuration not stated)	1	-0.3	4%	-9	1.6	-2	2.4
O=C1Nc2ccccc2N(O)N1c1cc(-c2ccc(Cl)cc2)[nH]n1	2	1.3	.	-2	-0.5	-31	3.6
CCc1ccc(NC(=O)CSc2nnc(CNC(=O)c3c(F)cccc3Cl)o2)cc1	99*	4.9	20%	-12	-2.0	0	-0.5
COc1ccc(S(=O)(=O)N2CCCOC2CNC(=O)C(=O)NCc2ccccc2F)cc1C (configuration not stated)	-9	-1.4	4%	3	-2.4	-1	-0.1
COC(=O)C(Cc1c[nH]c2ccccc12)NC(=O)CNC(C)=O (configuration not stated)	7	-3.0	3%	4	-0.4	-7	-0.2
CCCc1sc(N2CCCC(C(N)=O)C2)nc1-c1ccccc1 (configuration not stated)	.	4.9	16%	-17	2.3	15	-1.6
CSc1nnc(SCC2=NNC(=O)SC2)s1	3	1.2	-2%	-6	-3.0	-2	0.4
Cc1ccccc1-c1nnc(-c2ccc(Br)cc2)o1	-8	0.6	-1%	-2	-0.8	-2	1.6
CCCCN1C(=O)C(=O)N(CC(=O)N2CCN(c3ccccc3)CC2)C1=O	8	-1.3	4%	1	-1.9	-6	-0.9
CCOc1ccc(CCNC(=O)COC(=O)/C=C/c2ccc(OC(F)F)c(OC)c2)cc1OCC	20	2.6	-2%	-1	-3.2	9	-2.9
C=CCN1c2ccccc2[C@]23C[C@@H](C(=O)OC)N(C(C)=O)C2=NC(C(=O)OC)=C(C(=O)OC)[C@H]13	2	2.0	.	0	-1.7	-13	0.1
NC(=O)c1cc(S(=O)(=O)N2CCOCC2)cs1	0	-1.0	3%	5	6.9	-8	-0.7
C/C(=N\Nc1nc2ccccc2[nH]1)c1ccc([N+](=O)[O-])cc1	-10	1.7	0%	-8	1.3	0	2.7
CN(CC(=O)Nc1ccc(N2CCOCC2)cc1)C(=O)Cc1ccccc1	.	-5.2	-6%	-6	6.2	.	.
COc1ccc(-c2cc(-c3nnc(COC(=O)CC4CCCC4)o3)c3ccccc3n2)cc1OC	-19	-3.8	.	8	1.5	2	6.2
CN(C)Cc1nc2ccccc2c(=O)n1CC(=O)Nc1cccc(S(=O)(=O)N2CCOCC2)c1	-2	0.7	4%	4	-4.8	0	-1.4
Cc1c(N=C2NC(=O)C(CC(=O)Nc3ccccc3)S2)c(=O)n(-c2ccccc2)n1C (configuration not stated)	-3	4.3	7%	-4	2.7	-7	-0.1
Cc1ccc(Cl)cc1NC(=S)N(Cc1cccs1)C1CCCC1	.	-3.4	?	6	3.2	-8	0.7
O=C(NC(=S)Nc1ccccc1N1CCOCC1)c1ccco1	96*	5.5	.	0	-0.4	0	-0.5
CN(Cc1ccccc1)C(=O)Cn1nc(C(F)(F)F)c2c1CCC2	-1	2.1	-1%	-22	-0.6	-3	0.8
CN1C(=O)NC(c2ccc(Cl)cc2)C2=C1CC(C)(C)CC2=O (configuration not stated)	94*	3.2	8%	-1	1.0	0	1.7
CCOC(=O)c1ccc(OCc2c(C)noc2C)cc1	-2	-1.6	-2%	-4	3.3	-5	0.0
CC(C)(C)n1cnc2cc(NCc3cccs3)ccc21	71	-3.9	12%	1	-0.5	1	2.3
Cc1cc(Nc2ccccc2Cl)c2ccccc2n1	.	11	.	-4	-1.8	-1	2.3
O=C(Cc1cccs1)NCc1cccc(Cl)c1	-4	2.7	9%	1	2.0	0	-3.9
O=[N+]([O-])c1ccc(Cl)c(NC(=S)N2CCCC2)c1	-10	1.9	.	3	-0.3	-3	4.0
COc1ccc(C(=O)OCC(=O)Nc2cccc(C(C)=O)c2)cc1OC	-8	-2.1	.	-1	2.8	-5	2.4
Cc1cc(C(=O)COC(=O)c2ccc3c(c2)NC(=O)CS3)c(C)n1CC1CCCO1 (configuration not stated)	16	0.0	8%	-3	1.0	0	-2.6
(continued)
SMILES	ALR H2O2 inh	LANA-H2B inh	Vif TR-FRET	Beta2AR agonist	HNF4A DNA FP	Calb FLC	RanGTP-Impb inh
CC(C)=Cc1oc2ccc([N+](=O)[O-])cc2c1N1CC(C)OC(C)C1 (configuration not stated)	-6	2.8	7%	0	1.3	3	0.7
Cc1ccc(OCCC(=O)OCC(=O)Nc2ccc3c(c2)OCO3)cc1	6	-1.0	0%	1	3.0	0	0.6
O=C(NCCOc1ccccc1)c1cc2ccccc2o1	-10	-1.9	0%	-11	-0.5	-13	?
COc1cc(OC)c(C=NNC(=S)NC23CC4CC(CC(C4)C2)C3)c(OC)c1	.	.	-1%	3	-0.8	.	.
CCCC(=O)Nc1ccccc1-c1nnc(SC)[nH]c1=O	4	2.6	-1%	6	-2.1	5	0.8
CCOc1ccc(N2C(=O)CN(CC(=O)OC)C2=S)cc1	1	-3.0	17%	8	0.3	0	8.1
O=C(CN1N=C(c2ccc(Cl)cc2)CCC1=O)NCCN1CCc2ccccc2C1	-2	2.9	2%	0	-1.3	-3	-3.9
Cc1ccc(-c2nc(CS(=O)CC(=O)NC3CCCCC3)c(C)o2)cc1 (configuration not stated)	99*	-3.2	5%	11	2.6	-13	0.4
COc1cc(OC)cc(C(=O)NNC(=O)c2ccc(S(=O)(=O)N(C)c3ccccc3OC)cc2)c1	-8	-2.7	.	-5	-0.1	2	8.8
CCCS/C(N)=N/N=C/c1ccccc1O	-1	-5.5	3%	-11	-1.9	-26	3.1

Next section, starting with the last five of the part before.
SMILES	ALR H2O2 inh	LANA-H2B inh	Vif TR-FRET	Beta2AR agonist	HNF4A DNA FP	Calb FLC	RanGTP-Impb inh
CCOc1ccc(N2C(=O)CN(CC(=O)OC)C2=S)cc1	1	-3.0	17%	8	0.3	0	8.1
O=C(CN1N=C(c2ccc(Cl)cc2)CCC1=O)NCCN1CCc2ccccc2C1	-2	2.9	2%	0	-1.3	-3	-3.9
Cc1ccc(-c2nc(CS(=O)CC(=O)NC3CCCCC3)c(C)o2)cc1 (configuration not stated)	99*	-3.2	5%	11	2.6	-13	0.4
COc1cc(OC)cc(C(=O)NNC(=O)c2ccc(S(=O)(=O)N(C)c3ccccc3OC)cc2)c1	-8	-2.7	.	-5	-0.1	2	8.8
CCCS/C(N)=N/N=C/c1ccccc1O	-1	-5.5	3%	-11	-1.9	-26	3.1
COc1ccc(NC(=O)C(NC(=O)c2ccc(=O)[nH]c2)c2ccccc2)cc1 (configuration not stated)	25	0.2	?	-3	-3.4	0	-4.5
Cc1ccc(NC(=O)c2cc(-n3cnnc3)ccc2Cl)c(C)c1	-3	-5.4	5%	4	0.8	14	-2.7
O=C1OCCC1Sc1nnc(-c2ccco2)o1 (configuration not stated)	-4	-0.1	30%	-3	-0.7	-9	0.9
COc1ccc(/C=C/C(=O)OCC(=O)NC2CCCC(C)C2C)cc1S(=O)(=O)N1CCOCC1 (configuration not stated)	.	2.1	-3%	1	-3.3	0	3.9
CCOc1ccccc1N1CN(CC)CNC1=S	-5	-4.2	-4%	-1	-0.6	-6	6.9
O=C(COC(=O)CC1CCCC1)Nc1ccc(Br)cc1F	1	2.8	-6%	-3	-5.4	.	.
C/C(=C\C1CCCCC1)C(NC(=O)c1ccc(C(F)(F)F)cc1)c1ccc(-c2ccccc2)cc1 (configuration not stated)	1	-0.9	.	5	6.6	-2	-0.8
NC(=O)c1oc2ccccc2c1NC(=O)c1nc2ccccc2s1	1	-0.9	?	-4	-0.2	1	-7.0
Cc1nc2sc(C)c(C)c2c(=O)o1	?	-0.5	25%	2	2.1	-4	5.6
O=[N+]([O-])c1ccc(/C=N/Nc2nc(N3CCCCC3)nc(N3CCCCC3)n2)o1	-26	-1.0	?	-2	4.0	?	-0.9
COc1cc(OC)c2c(-c3cccc(-c4ccc(O)cc4)c3)cc(=O)oc2c1	.	.	0%	14	-4.1	.	.
CCn1c(C)cc(C(=O)CSc2nnnn2C2CCCC2)c1C	42	9.0	2%	-10	4.2	.	.
